Screens from PubChem.
Beta apoptosis: beta cell apoptosis inhibition; INS-1E cytokine-induced death, ATP luminescence, 48 h; percent of positive-control rescue, neutral wells zero; protection from apoptosis, % (no concentration beside the values); hit rate 0.8% among 300,000; AID 435005;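 active means all replicates at 75% or more, or half of them and the mean; inconclusive means half reach 75% but not the mean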;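 further: 0% = cytokine-treated negative control wells and 100% = positive control rescue; higher means more ATP so stronger rescue from cytokine killing; wells of about 40 µL received 100 nL stock; the first replicate is given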
LANA-H2A inh: blocks KSHV LANA binding to histone H2A/H2B | Q9QR71 | cell-free LANA-H2A/H2B peptide, fluorescence polarization | inhibition, % (no concentration beside the values) | hit rate 0.6% among 320,000 | AID 2629; in the data active means inhibition mostly above about 10%, no sharp cut-off; inactive means mostly below about 6.7%;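 further: stock transfer was 7.5 nL into about 10 µL; 0% = median of vehicle wells and 100% = median of positive control wells; one replicate is shown; the record names a cut of 25% in any replicate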
Ecoli rRNA inh: inhibitors of bacterial rRNA selective over humanized ribosomes; GFP signal change (wild-type ribosome), % (no concentration beside the values); hit rate 1.6% among 350,000; AID 720706; E. coli WT GFP vs humanized-ribosome RFP mutants, fluorescence, 24 h; active compounds read low; DMSO median 0, no signal -100;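 active means significant combined selectivity score with lowered wild-type GFP, culture density cut under 30%, mutant RFP and density less affected; inactive means any of these conditions unmet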; further: one replicate is shown; some compounds called inactive have numbers as strong as hits
ALR inh: inhibitors of human sulfhydryl oxidase ALR; P55789; purified ALR, DTT oxidation, H2O2 HRP-luminol luminescence; inhibition, % (no concentration beside the values); hit rate 3.8% among 290,000;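 active means mean and each replicate at 75% or more; inconclusive means only one of the two met; inactive means neither met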;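 further: stock transfer was 7.5 nL into about 7.5 µL; 0% = neutral wells and 100% = wells with inactivated enzyme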
Target sequence (P55789 whole entry, looked up): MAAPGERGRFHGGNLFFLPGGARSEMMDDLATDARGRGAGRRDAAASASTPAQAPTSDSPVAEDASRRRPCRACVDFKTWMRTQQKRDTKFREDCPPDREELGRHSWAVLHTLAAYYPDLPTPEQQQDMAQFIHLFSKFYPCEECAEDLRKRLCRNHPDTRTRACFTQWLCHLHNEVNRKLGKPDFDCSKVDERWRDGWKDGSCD
Bfl-1 A1 inh: inhibitors of the anti-apoptotic protein A1, read as caspase activation; MEF A1-2A-BIM cells, Caspase-Glo 3/7 luminescence, 3 h; percent of clofoctol response, vehicle zero; caspase activation, % (concentration not given with the values); hit rate 0.066% among 330,000; AID 2462;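 active means over half of replicate activation scores above 10%, or exactly half above 10 with the replicate mean above 10; inconclusive means replicate mean below 10 yet half the replicates above 10; inactive means over half of replicates below 10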;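 further: wells of about 30 µL received 50 nL stock; many hits fall short of the cut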
T cruzi repl: blocks replication of Trypanosoma cruzi. T. cruzi beta-gal in NIH3T3, luminescence, 90 h. inhibition, % (concentration not given with the values). hit rate 1.4% among 300,000;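 active means mean inhibition across valid replicates above about 55%, limit read from the data; inconclusive means mean below that limit but half or more replicates reach it; inactive means mean below it, under half of replicates reach it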;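 further: signal also drops with host cell toxicity which is not excluded here; 0% = plate median of DMSO wells and 100% = zero luminescence signal; higher percent means less beta-gal luminescence so fewer parasites; stock transfer was 50 nL into about 50 µL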
Beta2AR agonist: activates human beta-2 adrenergic receptor causing internalization. AID 504454. P07550. hit rate 0.43% among 340,000. response, % (concentration not given with the values). Am2.2-beta2AR cells, FAP receptor internalization, flow cytometry; reference of the scale not given here;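 active means response above a set limit, near 3 SD of response in nonfluorescent compounds, cut at about 42% in these data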;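 further: stock transfer was 100 nL into about 11 µL; a reference agonist was the positive control; negative values mostly stem from fluorescent compounds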
Target sequence (P07550 whole entry, looked up): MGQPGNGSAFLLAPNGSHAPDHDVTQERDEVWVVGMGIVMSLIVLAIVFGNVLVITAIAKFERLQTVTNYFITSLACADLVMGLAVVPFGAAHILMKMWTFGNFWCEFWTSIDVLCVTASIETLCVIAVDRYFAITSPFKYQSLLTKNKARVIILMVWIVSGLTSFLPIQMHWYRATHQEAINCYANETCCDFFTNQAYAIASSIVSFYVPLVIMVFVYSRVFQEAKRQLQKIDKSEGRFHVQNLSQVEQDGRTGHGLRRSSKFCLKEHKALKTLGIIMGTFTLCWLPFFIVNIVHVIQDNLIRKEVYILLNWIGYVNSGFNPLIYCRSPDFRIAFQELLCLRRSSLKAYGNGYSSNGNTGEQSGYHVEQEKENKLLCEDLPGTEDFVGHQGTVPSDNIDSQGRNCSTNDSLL
Calb FLC: C. albicans growth modulation with fluconazole; growth inhibition, % (no concentration beside the values); C. albicans CaCi-2 (fluconazole-resistant clinical isolate) + fluconazole, Alamar Blue growth, 48 h; hit rate 0.57% among 300,000;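 active means most replicates above 75%; inconclusive means exactly half above 75%; inactive means most below 75%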;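 further: all wells also contain fluconazole at 8 µg/ml as a sub-toxic cotreatment; 0% = median of DMSO wells and 100% = median of geldanamycin control wells; wells of about 8 µL received 7.5 nL stock; the first replicate is given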
Ecoli rRNA inh OD600: recorded beside Ecoli rRNA inh, whose call it bears; OD600 change, %; measured here: OD600 growth;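 optical density of the mix in the first replicate; 0 = DMSO median and -100 = no signal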
Ecoli rRNA inh RFP: further read-out of Ecoli rRNA inh, marked with its call; RFP signal change, %; measured here: RFP humanized mutant strains;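 first replicate; 0 = DMSO median and -100 = no signal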
Numbers without * were called inactive; ? = inconclusive; . = no result given. Only part of the results is shown. The share of hits here may be higher or lower than overall.

[1] Cn1c(C(=O)O)c(CC(=O)N2CCN(Cc3ccccc3)CC2)c2ccccc21
[2] CN1CCN(CCC(C#N)(c2ccccc2)c2ccccc2)CC1
[3] COc1ccccc1OP(=O)(Nc1cccnc1)Oc1ccccc1OC
[4] O=C(O)C(Cc1cnc[nH]1)NS(=O)(=O)c1ccc(Cl)cc1 (configuration not stated)
[5] Cc1cc(N=Nc2ccccc2C)ccc1N
[6] CN1C(=O)C(=Cc2ccc(N3CCOCC3)o2)C(=O)N(C)C1=S
[7] COC(=O)C1=C(c2ccc(F)cc2OCc2ccccc2)C[C@@H]2CC[C@H]1N2C(=O)NC1CC1
[8] CC(=O)C1C2c3ccccc3O[C@@]1(C)N=c1s/c(=C/c3ccoc3)c(=O)n12 (some centres not stated)
[9] O=C(O)CCn1cc(C=C2C(=O)NC(=S)NC2=O)c(-c2ccccc2)n1
[10] CC(=NCC1CCCO1)c1c(O)n(-c2ccc(Cl)cc2)c(=O)[nH]c1=O (configuration not stated)

| entry no. | 1 | 2 | 3 | 4 | 5 | 6 | 7 | 8 | 9 | 10 |
| --- | --- | --- | --- | --- | --- | --- | --- | --- | --- | --- |
| Beta apoptosis | -4 | 1 | . | -5 | 0 | -1 | 0 | -7 | -5 | -3 |
| LANA-H2A inh | 3.7 | 5.8 | -1.3 | 3.0 | 2.4 | -8.9 | -2.2 | 1.6 | 1.5 | 4.7 |
| Ecoli rRNA inh | . | . | -2 | 11 | -60 | 14 | -32 | . | 0 | . |
| Ecoli rRNA inh OD600 | . | . | -2 | 5 | -80 | 10 | -54 | . | 3 | . |
| Ecoli rRNA inh RFP | . | . | -5.0 | -1.3 | -28 | 3.8 | -0.7 | . | -2.9 | . |
| ALR inh | 5 | -5 | 17 | 1 | 86* | -1 | -13 | 18 | 87* | -4 |
| Bfl-1 A1 inh | 0.9 | 0.1 | 0.0 | 0.2 | -4.2 | 0.0 | -0.9 | 0.2 | 0.3 | 0.5 |
| T cruzi repl | -7 | 0 | -17 | -16 | 3 | -7 | . | 12 | -12 | -11 |
| Beta2AR agonist | 2 | 5 | 9 | 7 | 14 | -9 | -3 | -14 | -1 | -11 |
| Calb FLC | -1 | -2 | 5 | -3 | -14 | ? | . | -47 | 0 | ? |

Complete entries as entered above. Screens in order: Beta apoptosis	LANA-H2A inh	Ecoli rRNA inh	Ecoli rRNA inh OD600	Ecoli rRNA inh RFP	ALR inh	Bfl-1 A1 inh	T cruzi repl	Beta2AR agonist	Calb FLC
Record of `CC(=NCC1CCCO1)c1c(O)n(-c2ccc(Cl)cc2)c(=O)[nH]c1=O` (configuration not stated) → -3	4.7	.	.	.	-4	0.5	-11	-11	?
Record of `O=C(O)CCn1cc(C=C2C(=O)NC(=S)NC2=O)c(-c2ccccc2)n1` → -5	1.5	0	3	-2.9	87*	0.3	-12	-1	0
Record of `CN1C(=O)C(=Cc2ccc(N3CCOCC3)o2)C(=O)N(C)C1=S` → -1	-8.9	14	10	3.8	-1	0.0	-7	-9	?

More compounds
[11] CCOP(=O)(OCC)C(O)c1ccc(OC)cc1OC (configuration not stated)
[12] CN1CCN(c2cc(N3CCNCC3)ccc2[N+](=O)[O-])CC1
[13] N#Cc1ccc(NC(=O)CCNC(=O)c2ccco2)cc1Cl
[14] CCC(C(=O)N1C[C@H]2C[C@@H](C1)c1cccc(=O)n1C2)c1ccccc1 (some centres not stated)
[15] Cc1oc(-c2ccccc2)nc1CN1C(=O)C(C)N=C(c2ccccc2F)c2cc(Cl)ccc21 (configuration not stated)
[16] CN(C)C1(c2nnnn2CCOC(=O)Nc2ccc(Cl)cc2)CCCCC1
[17] O=c1cc(CN2CC=C(c3ccccc3)CC2)c2c(ccc3ccccc32)o1
[18] COc1ccc(/C=N/N=C(/N)N[N+](=O)[O-])c(OC)c1
[19] OC1(c2ccccc2F)CC2CCC(C1)N2CCN1CCOCC1 (configuration not stated)
[20] CCOc1ccc(N=C2SCCCN2C)cc1

| entry no. | 11 | 12 | 13 | 14 | 15 | 16 | 17 | 18 | 19 | 20 |
| --- | --- | --- | --- | --- | --- | --- | --- | --- | --- | --- |
| Beta apoptosis | -3 | . | -8 | . | 5 | 2 | 5 | -4 | -12 | -9 |
| LANA-H2A inh | 2.2 | -2.1 | -1.1 | -3.5 | 0.7 | 0.5 | 7.1 | 1.6 | -4.2 | -1.5 |
| Ecoli rRNA inh | . | . | 1 | 4 | 11 | . | . | . | . | . |
| Ecoli rRNA inh OD600 | . | . | 7 | 6 | 7 | . | . | . | . | . |
| Ecoli rRNA inh RFP | . | . | -0.3 | -5.1 | -0.5 | . | . | . | . | . |
| ALR inh | 0 | -15 | -8 | -15 | . | 6 | -16 | -5 | 0 | -1 |
| Bfl-1 A1 inh | 0.4 | -0.4 | 2.1 | 0.7 | 0.8 | 0.2 | -0.7 | -0.9 | -0.5 | -0.3 |
| T cruzi repl | -18 | 3 | 10 | 0 | 33 | 11 | -6 | -5 | 2 | -12 |
| Beta2AR agonist | 2 | 15 | 14 | -1 | 9 | 2 | -5 | 7 | -10 | 2 |
| Calb FLC | 13 | -3 | 2 | -1 | 7 | 2 | -21 | 15 | 5 | -11 |

[21] CC1=Nc2ccccc2/C1=C/c1c(O)n(C)c(=O)[nH]c1=O
[22] CC1=C2C(=O)C3C(CC=C4CC(O)CCC43C)C2CCC12OC1CC(C)CNC1C2C (configuration not stated)
[23] COc1ccc(C(CC(=O)N2CCC3(CC2)OCCO3)NS(=O)(=O)c2ccc(C)cc2)cc1 (configuration not stated)
[24] CCOC(=O)CNC(=O)CNC(=O)C(Cc1ccc(N(CCCl)CCCl)cc1)NC(C)=O (configuration not stated)
[25] CC(=O)c1ccc(OC(=O)N(C)c2ccccc2)cc1
[26] Cc1cccc(-n2c(O)c(C=NCCCN3CCOCC3)c(=O)[nH]c2=O)c1C
[27] O=C(Cc1ccccc1)N1CCN(C2CCCC2)CC1
[28] O=C(CN1CCN(Cc2ccc(Cl)cc2)C1=O)N1CCC2(CC1)OCCO2

| entry no. | 21 | 22 | 23 | 24 | 25 | 26 | 27 | 28 |
| --- | --- | --- | --- | --- | --- | --- | --- | --- |
| Beta apoptosis | -7 | -6 | -18 | . | -7 | 0 | -2 | -12 |
| LANA-H2A inh | 2.1 | 0.0 | 8.2 | -6.8 | 4.6 | 0.3 | 8.3 | 4.8 |
| Ecoli rRNA inh | 9 | 13 | . | 13 | 2 | . | . | . |
| Ecoli rRNA inh OD600 | -1 | 11 | . | 7 | 0 | . | . | . |
| Ecoli rRNA inh RFP | 12 | 3.3 | . | -0.8 | 1.0 | . | . | . |
| ALR inh | . | -9 | 4 | 2 | -20 | -5 | 2 | . |
| Bfl-1 A1 inh | -0.2 | 0.4 | ? | 0.8 | -0.5 | 2.3 | -0.1 | 0.7 |
| T cruzi repl | 2 | 1 | 0 | 0 | 1 | 13 | -2 | -9 |
| Beta2AR agonist | 7 | 13 | 9 | -6 | -1 | -2 | -1 | -4 |
| Calb FLC | 2 | 1 | -21 | 12 | -6 | -18 | -2 | -12 |

2 of these compounds in a different format.
5) Cc1cc(N=Nc2ccccc2C)ccc1N
- Beta apoptosis: 0
- LANA-H2A inh: 2.4
- Ecoli rRNA inh: -60
- Ecoli rRNA inh OD600: -80
- Ecoli rRNA inh RFP: -28
- ALR inh: 86*
- Bfl-1 A1 inh: -4.2
- T cruzi repl: 3
- Beta2AR agonist: 14
- Calb FLC: -14

6) CN1C(=O)C(=Cc2ccc(N3CCOCC3)o2)C(=O)N(C)C1=S
- Beta apoptosis: -1
- LANA-H2A inh: -8.9
- Ecoli rRNA inh: 14
- Ecoli rRNA inh OD600: 10
- Ecoli rRNA inh RFP: 3.8
- ALR inh: -1
- Bfl-1 A1 inh: 0.0
- T cruzi repl: -7
- Beta2AR agonist: -9
- Calb FLC: ?
